ClpP mod: qHTS Assay for Activators of ClpP | ATP-dependent Clp protease proteolytic subunit (Bacillus subtilis (strain 168)), P80244 | purified B. subtilis ClpP, FRET peptide cleavage, 20 min | Potency, µM (highest dose often 57.5 µM), without a hit: at the top dose activity change, negative = active | 1.9% of 340,000 active | AID 651965, 2013; active = well fitted falling curve with a large enough effect; inconclusive = small, poorly fitted or top-dose-only effect; inactive = no such curve, though single readings can be large or run the other way; note: potency is the fitted concentration of half-maximal effect; the source files actives as falling curves though it sought activators and does not explain the sign; nearly all actives have a fitted effect of over 65% in size; many hits overshoot -100%
Target sequence (P80244 whole entry, looked up): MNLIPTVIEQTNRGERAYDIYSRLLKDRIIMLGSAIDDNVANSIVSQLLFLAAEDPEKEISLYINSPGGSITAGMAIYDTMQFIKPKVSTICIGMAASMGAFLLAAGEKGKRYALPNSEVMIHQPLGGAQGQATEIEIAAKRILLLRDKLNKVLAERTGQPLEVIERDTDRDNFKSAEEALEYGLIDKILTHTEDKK
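ClpP 10 microg/mL final, pH 8 Tris/KCl buffer with BSA, glycerol, Tween-20; compound pinned in; FRET-FV substrate; RT 20 min; Ex320/Em430; ΔFRET vs ADEP 5.8 microM, DMSO, no enzyme.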
TRPML1 ag: human mucolipin-1 channel agonism. TRPML1-expressing cells, Ca2+ dye fluorescence, FDSS; host cell line not named in the record; reference of the full effect not given here. AID 624414. 0.12% of 410,000 active. activation, % (test concentration not listed); in the data active = activation above about 50%; inconclusive = about 30% to 50%; inactive = below about 30%; note: 0% is about no effect; the text of the record puts the active cut at 80%
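Calcium fluorescence on an FDSS kinetic reader gave the read-out. Tet-induced TRPML1-DL cells were plated overnight, dye-loaded (Ca8 with quencher, 45-90 min, room temperature, dark), then read 110 s after compound addition, and again 110 s after 4uM final 54-4 (EC80).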
TRPV1 PAM: potentiators of human vanilloid receptor 1 (TRPV1). 0.02% of 320,000 active. potentiation, % at 8.33 µM. Q8NER1. AID 540277. TRPV1-expressing cells, Fluo-8 calcium influx, capsaicin EC20 potentiation; host cell line not named in the record; control for the full effect not named in the record; active means potentiation above 80%; inconclusive means 30% to 80%; inactive means below 30%; note: 0% is about no effect
Target sequence (Q8NER1 whole entry, looked up): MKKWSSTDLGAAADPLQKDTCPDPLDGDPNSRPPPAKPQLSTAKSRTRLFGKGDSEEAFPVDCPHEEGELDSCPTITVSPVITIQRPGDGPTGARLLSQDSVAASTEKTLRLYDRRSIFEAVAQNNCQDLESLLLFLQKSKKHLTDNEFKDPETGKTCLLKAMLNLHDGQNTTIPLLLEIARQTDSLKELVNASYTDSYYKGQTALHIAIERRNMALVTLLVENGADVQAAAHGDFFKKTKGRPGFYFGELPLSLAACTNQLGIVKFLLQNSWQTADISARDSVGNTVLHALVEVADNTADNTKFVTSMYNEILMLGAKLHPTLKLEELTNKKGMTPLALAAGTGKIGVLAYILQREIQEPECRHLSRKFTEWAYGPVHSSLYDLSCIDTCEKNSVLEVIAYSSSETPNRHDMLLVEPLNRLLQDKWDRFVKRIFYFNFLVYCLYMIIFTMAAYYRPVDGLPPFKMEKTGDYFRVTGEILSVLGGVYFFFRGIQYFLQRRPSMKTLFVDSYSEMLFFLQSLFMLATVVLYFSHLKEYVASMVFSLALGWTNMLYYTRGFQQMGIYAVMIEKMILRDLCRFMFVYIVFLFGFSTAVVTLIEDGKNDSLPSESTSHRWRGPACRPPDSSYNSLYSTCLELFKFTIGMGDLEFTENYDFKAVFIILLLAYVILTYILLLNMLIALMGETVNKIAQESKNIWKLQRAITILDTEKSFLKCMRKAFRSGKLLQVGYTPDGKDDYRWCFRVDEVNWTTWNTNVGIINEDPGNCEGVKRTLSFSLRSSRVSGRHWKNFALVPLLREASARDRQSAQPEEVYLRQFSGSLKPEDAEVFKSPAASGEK
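Fluo-8 calcium influx in TRPV1-expressing cells, kinetic read (ex 480/em 520 nm). Compound added and read 3 min for agonist activity, followed by capsaicin at EC20 final and 2 min further read for enhancement.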
TRPML1 inh: inhibitors of human TRPML1 channel; Q9GZU1; TRPML1-inducible cells, Ca2+ dye fluorescence, FDSS; hits give low values; inhibition of EC80 agonist-evoked calcium signal; activity change, negative = inhibition, % (test concentration not listed); 0.02% of 390,000 active; in the data active means activity change below about -50%; inconclusive means about -30% to -50%; inactive means above about -30%;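 note: stimulus is agonist 54-4 at its EC80 concentration; % is set by controls: 0 for no effect and ±100 for the full control effect; compound concentration not given in the record; the text of the record puts the active cut at -80%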
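TRPML1-DL cells, Tet-induced overnight (~16 h, 37 °C) at 1,500 cells/well, were loaded with Ca8 no-wash dye plus quencher for 45-90 min at room temperature. Compounds were pinned during FDSS kinetic reading; agonist 54-4 at EC80 (4 uM final) then added.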
Menin-MLL FL inh: menin-MLL binding inhibition, fluorescein peptide | Fluorescence polarization, fluorescein-MLL peptide displacement from menin | FP activity change, % at 61.4 µM | 290,000 tested, under 10 active | AID 1766; inconclusive = falling polarisation curve, or a change in total fluorescence; inactive = total fluorescence flat and polarisation flat or rising; no compound was filed as active; the % refers to the polarisation; negative = inhibition;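 note: % of control where 0% means no effect; inhibitors lower the polarisation; unlabelled MLL peptide was the positive control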
Sfp inh: Sfp phosphopantetheinyl transferase inhibition; Q9F4F7; Potency, µM, without a hit: max response, negative = inhibition, actives largely listed as inhibitors; 3.5% of 310,000 active; Biochemical Sfp PPTase activity, qHTS; active = well fitted inhibition curve with a large enough effect; inconclusive = small, poorly fitted or top-dose-only effect, or another doubt; inactive = no such curve, though single readings can be large or run the other way;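 note: the enzyme is Sfp with the accession as filed and its product quenches rhodamine fluorescence; potency is the fitted concentration of half-maximal effect; 0% = enzyme reaction without inhibitor and -100% = no enzyme wells; top concentration of the series not given in the record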
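Step 1, compound plus 15 nM Sfp-PPTase, 15 min, room temperature. Step 2, add rhodamine-CoA (5 uM) and BHQ-2-YbbR (12.5 uM). Step 3, read 525/598 nm fluorescence at 0 and 30 min.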
PINK1 expr mod: modulators of PINK1 expression. 0.2% of 410,000 active. PINK1 immunofluorescence, high-content cytometry, 24 h. Potency, µM (top dose mostly 76.6 µM), for inactives: at the top dose activation (PINK1 increase), actives largely listed as activators; active = well fitted activation curve with a large enough effect; inconclusive = small, poorly fitted or top-dose-only effect; inactive = flat fitted curve, though single readings scatter; cell line not stated here;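 note: potency is the fitted concentration of half-maximal effect; % of control where 0% means no effect; nearly all actives have a fitted effect of over 65% in size; a mitochondrial uncoupler was the plate control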
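Stable cell line treated 24 h with compounds at 5 concentrations (CCCP controls), then fixed and immunostained for PINK1 plus nuclear and cell stains; PINK1 immunofluorescence quantified by laser-scanning microplate cytometry.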
* marks the source's active call; other numbers are inactive results; ? = inconclusive; / = not tested or not shown; [ ] = remark or other dose.

SMILES	ClpP mod	TRPML1 ag	TRPV1 PAM	TRPML1 inh	Menin-MLL FL inh	Sfp inh	PINK1 expr mod
Cc1cc(C(=O)COC(=O)c2ccc(O)cc2)c(C)n1CC(F)(F)F	0.7%	0.7	-13	28	/	/	3.5%
CC(C)CCNC(=O)C1CCC(=O)N1C(C)C (configuration not stated)	-0.5%	1.1	16	13	0.9	-5%	1.4%[38.3 µM]
COc1cc(NC(=O)C2CCN(S(=O)(=O)c3cccc4nonc34)CC2)cc(OC)c1	-3.3%	-0.4	7	9	5.5	2%	-0.7%
Cc1cc(C)n2c(SCC(=O)NC3CCCCC3C)nnc2n1 (configuration not stated)	/	0.2	-6	5	2.8	26%	2.8%
Cc1cccc(C)c1NC(=O)CCCSc1nnnn1C	-7.5%	-0.5	-4	-4	-0.4	7%	3.8%
O=Cc1cn(CC(O)Cn2cc(C=O)c3ccccc32)c2ccccc12	1.0%	-0.3	-1	-1	-7.7	-11%	0.6%
Cc1nnc(SCC(=O)Nc2sccc2C(N)=O)n1Cc1ccccc1	-1.0%	-0.3	-10	6	3.0	0%	-0.5%[38.3 µM]
COc1ccccc1NC(=O)C(CC(C)C)NC(=O)C1CCCCC1 (configuration not stated)	0.7%	-0.6	-27	2	1.8	21%	0.9%
O=c1c2c([N+](=O)[O-])cc([N+](=O)[O-])cc2sn1Cc1ccccc1	/	0.1	5	2	?	2.2µM*	-0.7%
NS(=O)(=O)c1ccc(CNC(=O)c2ccc(Cl)c(S(=O)(=O)NCc3ccccc3)c2)cc1	-0.5%	-0.1	8	-8	/	/	0.0%
CC(=O)Nc1ccc(S(=O)(=O)Nc2cc(C)c(-n3nc4ccccc4n3)cc2O)cc1	0.5%	-0.4	-10	-15	3.3	-3%	14%[38.3 µM]
Cc1ccc(NC(=O)CC(=O)Nc2ccc(C)cc2C)c(C)c1	1.4%	2.8	8	19	-0.5	2%	2.4%
COc1ccc(C2(C)NC(=O)N(CC(=O)c3ccc4c(c3)OCO4)C2=O)cc1 (configuration not stated)	-6.3%	1.9	4	-10	-2.4	13%	1.9%
CCNC(=S)Nc1scc(-c2ccccc2)c1C(=O)OCC	0.5%	0.1	-7	11	5.2	-22%	1.6%
O=C(NCc1ccccc1Cl)c1ccc(-c2ccccc2)cc1	-4.0%	2.3	3	-6	6.6	5%	7.0%

3 of the entries above in order of the TRPML1 inh value, descending:
SMILES	TRPML1 inh
Cc1cc(C(=O)COC(=O)c2ccc(O)cc2)c(C)n1CC(F)(F)F	28
CCNC(=S)Nc1scc(-c2ccccc2)c1C(=O)OCC	11
O=C(NCc1ccccc1Cl)c1ccc(-c2ccccc2)cc1	-6

Two records picked at random from the list so far:
SMILES	ClpP mod	TRPML1 ag	TRPV1 PAM	TRPML1 inh	Menin-MLL FL inh	Sfp inh	PINK1 expr mod
NS(=O)(=O)c1ccc(CNC(=O)c2ccc(Cl)c(S(=O)(=O)NCc3ccccc3)c2)cc1	-0.5%	-0.1	8	-8	/	/	0.0%
Cc1nnc(SCC(=O)Nc2sccc2C(N)=O)n1Cc1ccccc1	-1.0%	-0.3	-10	6	3.0	0%	-0.5%[38.3 µM]

Continuation:
SMILES	ClpP mod	TRPML1 ag	TRPV1 PAM	TRPML1 inh	Menin-MLL FL inh	Sfp inh	PINK1 expr mod
Cc1occc1C(=O)N=Nc1c(O)[nH]c2ccc(Br)cc12	/	/	-6	/	2.6	1%	/
CCCCCc1nnc(NC(=O)OCCC)s1	-3.9%	0.1	-14	11	4.9	-2%	-1.5%
CCOc1ccc(N(CC(=O)Nc2ccc(C)c(C)c2)S(=O)(=O)c2c(C)noc2C)cc1	-5.1%	2.8	-8	-8	-2.7	14%	0.1%
COc1cc(OC)cc(C(=O)N2CCC(n3c(C)nc4cc(F)ccc43)CC2)c1	0.3%	0.5	-14	11	4.0	9%	-1.5%
O=[N+]([O-])c1cccc(/C=N/N=C\c2ccccc2)c1	/	0.1	0	11	6.1	18%	11%
O=C(CSc1nnnn1C1CCCC1)Nc1cccc(NC(=O)c2ccco2)c1	0.1%	1.1	-7	1	3.9	11%	/
CN(Cc1cccs1)C(=O)CN1CCN(S(=O)(=O)c2ccc3c(c2)OCCCO3)CC1	-2.1%	0.3	-9	-7	/	/	-0.3%
CCCCCN1CSC(=S)N(Cc2ccccc2)C1	-0.4%	0.7	-4	13	0.1	-17%	5.6%
COc1ccc(CC(=O)Nc2ccc(S(=O)(=O)N3CCC(C)CC3)cc2)c(OC)c1	0.3%	1.0	28	1	/	/	0.2%
CCC(=NCc1ccco1)c1c(C(F)(F)F)[nH]n(-c2nc3ccccc3s2)c1=O	-2.3%	0.2	5	4	0.1	-4%	14%
Cc1[nH]c2ccccc2c1Cc1n[nH]c(=S)n1C	-1.1%	-0.7	-7	-1	5.1	3%	1.2%
CCOC(=O)CSc1nc(C(C)C)nc2ccccc12	0.0%	1.4	-22	2	6.6	-9%	0.2%
NC(=O)c1cnn2c(-c3cccc(C(F)(F)F)c3)ccnc12	/	0.4	-12	-9	0.4	19%	-1.4%
Cc1nn(CC(=O)N2N=C(C(F)F)CC2(O)C(F)F)c(C)c1[N+](=O)[O-] (configuration not stated)	0.8%	-0.3	2	5	5.7	3%	2.0%
COc1ccc(S(=O)(=O)n2nc(C)c(S(=O)(=O)N3CCCCCC3)c2C)cc1OC	-0.4%	1.5	/	3	/	/	0.8%
COCCCNC(=O)c1ccc(Cn2c(=O)c3ccccc3n(CC(N)=O)c2=O)cc1	-23%	0.4	/	11	/	/	2.3%
Cc1ccc(S(=O)(=O)N2[C@@H](c3ccc(C(C)(C)C)cc3)C(C(=O)O)=CC[C@H]2c2ccc(Cl)c(Cl)c2)cc1	0.0%	-0.1	/	22	/	/	-1.0%
COC(=O)[C@H]1C[C@H](OC(=O)NC2CC2)[C@@]2(O)CN(S(=O)(=O)c3ccc(C)cc3)CC2[C@H]1C(=O)OC (some centres not stated)	0.6%	-0.2	/	-2	/	/	0.6%
Cc1cc(C(=O)COc2ccccc2[N+](=O)[O-])c(C)n1-c1cccc(S(=O)(=O)N2CCOCC2)c1	-8.9%	1.2	-3	-8	-3.0	7%	0.8%
CC(CC(=O)NCc1ccc(F)cc1)c1ccccc1 (configuration not stated)	/	-0.6	-6	4	0.3	4%	0.3%
CCCCNc1c(N2CCN(C(=O)OCC)CC2)c(=O)c1=O	0.8%	-0.6	9	5	3.6	15%	-0.5%
COc1ccc(OC)c(CCNC(=O)Cn2ccc3cc(S(=O)(=O)N4CCCCC4)ccc32)c1	-12%	2.7	/	-12	/	/	1.8%
Nc1nnc(Cc2ccccc2)s1	-6.2%	-0.2	11	4	-2.2	5%	-3.0%
O=C(CCCOc1ccc(Br)cc1)NNC(=O)c1ccncc1	-1.4%	-0.3	-15	-16	/	/	0.4%
Cc1ccccc1NCC(=O)N/N=C/c1c[nH]c2ccccc12	-0.8%	3.0	13	-6	6.8	-10%	5.2%
C(=N\Nc1nc2ccccc2[nH]1)/c1ccncc1	/	-0.6	14	-6	-1.2	5%	-1.7%
COc1ccc(NC(=O)Cn2c(=O)n(Cc3ccccc3)c(=O)c3sc4ccccc4c32)cc1	-13%	-0.2	/	0	/	/	0.2%
NC(=O)CN1CCN(S(=O)(=O)c2ccc(Cl)cc2)CC1	/	-0.5	-3	6	-0.1	17%	-0.1%
CCN1C(=O)/C(=C2\SC(=S)N(NC(=O)c3cccnc3)C2=O)c2ccccc21	0.1%	2.0	-7	-16	-0.4	-11%	-2.3%
COc1ccc(C(=O)N[C@H](C(=O)NCc2ccc(C)cc2)C(C)C)cc1	/	0.9	-21	-19	0.9	9%	18%
O=C(Nc1ccccc1)c1ccc(S(=O)(=O)N(CCO)CCO)cc1	-1.6%	0.7	-17	27	1.1	-12%	2.9%
O=C(NC1CCN(S(=O)(=O)c2ccc(F)cc2)CC1)C1CCCCC1	/	0.4	?	-4	0.7	9%	-1.8%
CCOC(=O)c1c(C)n(C)c2cc(Br)c(OC)cc12	/	1.3	0	14	-2.7	15%	-1.3%
CCOC(=O)C1=C(C)C(c2ccccc2OC)NC(=S)N1 (configuration not stated)	0.6%	-0.8	20	0	3.0	3%	7.3%
COCCNC(=O)C[C@H]1C[C@H]2c3cc(NS(=O)(=O)c4ccc(F)cc4)ccc3O[C@H]2[C@H](CO)O1	-1.1%	-0.8	/	2	/	/	-0.4%
O=C1CN(C(=S)Nc2ccc(OC(F)F)cc2)CCN1	/	-0.9	2	7	-3.1	-4%	1.2%
Cc1ccc(NC(=O)CN2C(=O)N/C(=C/c3ccc4c(c3)OCCO4)C2=O)cc1	/	-0.2	?	12	-3.7	1%	6.4%
CCOc1cc(/C=C(/C#N)C(=O)Nc2ccc(O)cc2)cc(Br)c1O	1.5%	9.4	-6	6	?	-10%	7.0%
COc1cccc(NC(=O)CN(C)C(=O)c2cc(-c3ccco3)nc3ccccc23)c1	/	-0.9	4	-8	/	/	0.2%
CC(=O)N[C@@H](Cc1c[nH]c2ccccc12)C(=O)NCCc1ccc(S(N)(=O)=O)cc1	-2.8%	-1.4	-4	5	-1.4	9%	-0.3%
CC(NCc1cccc(S(=O)(=O)N(C)C)c1)c1ccc(F)cc1 (configuration not stated)	1.4%	/	-2	/	2.5	?	3.9%
Cc1ccc(Cl)cc1NC(=O)C(C)n1nnc2sc(-c3ccccc3)cc2c1=O (configuration not stated)	0.7%	0.0	/	9	/	/	0.8%
Cc1ccc2c(=O)cc(C(=O)Nc3sc4c(c3C(=O)NCC3CCCO3)CCC4)oc2c1 (configuration not stated)	-0.4%	-0.7	/	2	/	/	1.8%
Cc1cc(Nc2cccc(Cl)c2)nc2ccc(NC(=O)COc3ccc(Cl)cc3)cc12	3.7%	-0.5	/	2	/	/	?
O=C(NNC1CC(=O)N(c2ccccc2)C1=O)c1ccccc1Cl (configuration not stated)	/	-0.9	18	-11	2.1	12%	1.8%
CCn1c2ccccc2c2cc(NC(C)=O)ccc21	?	0.6	6	23	3.6	4%	1.4%
Cc1nn(C)c(C)c1CCC(=O)N1CCCC(N2CCN(c3ccc(F)cc3)CC2)C1 (configuration not stated)	-0.4%	-0.1	-9	-3	-3.1	10%	-0.8%
CCOC(=O)C1=C(c2ccccc2)NC(SC)=C(C#N)C1c1cccnc1 (configuration not stated)	-2.0%	0.2	-9	-1	4.8	-13%	-3.1%
COc1ccc(-n2c(C)nc3sc4c(c3c2=O)CCC4)cc1	/	1.2	1	10	6.4	?	0.3%
c1ccc(Nc2n[nH]nc2-c2ccccc2)cc1	-6.2%	0.2	12	26	2.3	1%	-0.7%

From PubChem
